Bioassay records deposited in PubChem BioAssay by National Center for Advancing Translational Sciences (NCATS).
Menin MLL FP FL = displaces fluorescein MLL peptide from human menin. FP activity change, % at 61.4 µM. Fluorescence polarization, fluorescein-MLL peptide displacement from menin. AID 1766. 290,000 tested, under 10 active; inconclusive = falling polarisation curve, or a change in total fluorescence; inactive = total fluorescence flat and polarisation flat or rising; no compound was filed as active; the % refers to the polarisation; negative = inhibition;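 also: % of control where 0% means no effect; inhibitors lower the polarisation; unlabelled MLL peptide was the positive control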
TRPV1 potentiator = enhances activation of the human vanilloid receptor TRPV1; 320,000 tested, 0.02% active; Q8NER1; TRPV1-expressing cells, Fluo-8 calcium influx, capsaicin EC20 potentiation; host cell line not named in the record; control for the full effect not named in the record; potentiation, % at 8.33 µM; AID 540277; active means potentiation above 80%; inconclusive means 30% to 80%; inactive means below 30%; also: 0% is about no effect
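Cells expressing TRPV1 were dye-loaded with Fluo-8 and read kinetically: 10 s baseline, 3 min after compound (agonist portion), then 2 min after EC20 capsaicin (allosteric enhancer portion). Calcium-bound dye fluorescence at 480/520 nm.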
TRPML1 blocker = inhibitors of human TRPML1 channel. Q9GZU1. TRPML1-inducible cells, Ca2+ dye fluorescence, FDSS; active compounds read low; inhibition of EC80 agonist-evoked calcium signal. activity change, negative = inhibition, % (concentration not given with the values). 390,000 tested, 0.02% active. AID 624415; in the data active means activity change below about -50%; inconclusive means about -30% to -50%; inactive means above about -30%;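 also: stimulus is agonist 54-4 at its EC80 concentration; % is scaled to controls: 0 for no effect and ±100 for the full control effect; the text of the record puts the active cut at -80%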
Target sequence (Q9GZU1 whole entry, looked up): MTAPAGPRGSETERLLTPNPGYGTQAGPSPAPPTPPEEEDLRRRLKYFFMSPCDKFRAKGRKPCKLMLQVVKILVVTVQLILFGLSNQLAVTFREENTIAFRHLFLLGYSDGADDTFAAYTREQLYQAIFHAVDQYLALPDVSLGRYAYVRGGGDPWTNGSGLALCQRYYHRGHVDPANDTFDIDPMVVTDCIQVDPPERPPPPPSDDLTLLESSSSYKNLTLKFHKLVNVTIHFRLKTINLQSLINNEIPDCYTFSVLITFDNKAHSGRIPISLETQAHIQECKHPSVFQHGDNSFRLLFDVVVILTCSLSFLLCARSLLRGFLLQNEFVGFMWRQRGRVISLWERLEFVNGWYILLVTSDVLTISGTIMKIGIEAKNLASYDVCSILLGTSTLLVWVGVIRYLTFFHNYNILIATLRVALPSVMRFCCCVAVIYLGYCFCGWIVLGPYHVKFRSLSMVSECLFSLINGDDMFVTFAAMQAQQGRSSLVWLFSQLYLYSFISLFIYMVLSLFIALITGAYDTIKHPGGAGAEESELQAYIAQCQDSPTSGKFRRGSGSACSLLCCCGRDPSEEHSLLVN
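Calcium fluorescence in TRPML1-DL cells induced overnight with Tet: a 110 s read after compound pin addition, then a 110 s antagonist read after challenge with 54-4 at 4 uM final (EC80).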
gsp agonist = gsp mutant agonism | gsp mutant cells, cAMP HTRF, 30 min; control for the full effect not named in the record | Potency, µM (doses to about 76.9 µM), inactives show top-dose activation (cAMP increase), usual class: activators | 340,000 tested, 0.13% active | AID 624287; active = well fitted activation curve with a large enough effect; inconclusive = small, poorly fitted or top-dose-only effect, or another doubt; inactive = no such curve, though single readings can be large or run the other way; cell line not stated here;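 also: phosphodiesterase inhibitor Ro 20-1724 added with compounds to block cAMP breakdown; potency is read from the fitted curve at half-maximal effect; nearly all actives have a fitted effect of over 60% in size; about a fifth of the inactives were tested at one dose only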
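Cells stably selected in G418 were plated at 2000/well, grown 16-24 hr, then given compounds in DMSO with the PDE inhibitor […] (300 uM solution added) for 30 min at 37C; cAMP was read by HTRF.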
Sfp inh = Sfp phosphopantetheinyl transferase inhibition; 310,000 tested, 3.5% active; Biochemical Sfp PPTase activity, qHTS; AID 1490; Q9F4F7; Potency, µM, without a hit: max response, negative = inhibition, most hits filed as inhibitors; active = well fitted inhibition curve with a large enough effect; inconclusive = small, poorly fitted or top-dose-only effect, or another doubt; inactive = no such curve, though single readings can be large or run the other way;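 also: the enzyme is Sfp with the accession as filed and its product quenches rhodamine fluorescence; potency is read from the fitted curve at half-maximal effect; 0% = enzyme reaction without inhibitor and -100% = no enzyme wells; top concentration of the series not given in the record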
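Step 1, compound plus 15 nM Sfp-PPTase, 15 min, room temperature. Step 2, add rhodamine-CoA (5 uM) and BHQ-2-YbbR (12.5 uM). Step 3, read 525/598 nm fluorescence at 0 and 30 min.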
gsp antag = gsp mutant antagonism. gsp-mutant cells, cAMP HTRF, 30 min; control for the full effect not named in the record. Potency, µM (doses to about 76.9 µM), inactives show top-dose activity change, negative = inhibition, usual class: inhibitors. 340,000 tested, 0.4% active; active = falling curve of any shape with a large fitted effect; inconclusive = falling curve, mostly with a smaller effect; inactive = flat or rising curve; cell line not stated here;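 also: intracellular cAMP measured with PDE inhibitor Ro 20-1724 present during compound exposure; potency is read from the fitted curve at half-maximal effect; % is scaled to controls: 0 for no effect and ±100 for the full control effect; nearly all actives have a fitted effect of over 65% in size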
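Cells, 2000/well, grown 16–24 h in DMEM 10% FBS with 0.5 mg/ml G418, then compounds plus […] (300 uM addition stock), 30 min at 37C. cAMP read by HTRF (cAMP-d2 and anti-cAMP antibody-K in lysis buffer) after 30 min RT.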
ClpP mod = qHTS Assay for Activators of ClpP. AID 651965, 2013. 340,000 tested, 1.9% active. purified B. subtilis ClpP, FRET peptide cleavage, 20 min. Potency, µM (top dose mostly 57.5 µM), for inactives: at the top dose activity change, negative = active. ATP-dependent Clp protease proteolytic subunit (Bacillus subtilis (strain 168)), P80244; active = well fitted falling curve with a large enough effect; inconclusive = small, poorly fitted or top-dose-only effect; inactive = no such curve, though single readings can be large or run the other way; also: potency is read from the fitted curve at half-maximal effect; the source files actives as falling curves though it sought activators and does not explain the sign; nearly all actives have a fitted effect of over 65% in size; many hits overshoot -100%
Target sequence (P80244 whole entry, looked up): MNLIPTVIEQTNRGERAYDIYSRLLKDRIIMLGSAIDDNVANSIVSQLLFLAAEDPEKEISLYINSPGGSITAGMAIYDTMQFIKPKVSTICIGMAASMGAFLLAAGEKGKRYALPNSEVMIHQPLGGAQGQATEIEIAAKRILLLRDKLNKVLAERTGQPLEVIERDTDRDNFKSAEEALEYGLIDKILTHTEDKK
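Purified B. subtilis ClpP, 10 microg/mL final in Tris/HCl pH8 with KCl, BSA, glycerol and Tween-20, cleaved an Abz/nitrotyrosine-quenched decapeptide. Fluorescence (ex 320, em 430) was read at 0 and 20 min at room temperature. Delta was normalized to 5.8 microM ADEP and DMSO/no-enzyme controls.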
The depositor's hits bear a star; u = inconclusive; x = not tested or not shown; & = joins results of further samples; [ ] = remark or other dose.

SMILES | Menin MLL FP FL | TRPV1 potentiator | TRPML1 blocker | gsp agonist | Sfp inh | gsp antag | ClpP mod
CN(C)S(=O)(=O)c1cccc(NC(=O)CSc2nc3ccccc3n2-c2ccccc2)c1 | -1.1 | 2 | 8 | 1% | -14% | -26% | -3.3%
Cc1nc2ccc(C(=O)O)cc2nc1C | 1.5 | 14 | -10 | 0% | 14% | 5% | -0.5%
Cc1ccccc1Nc1ccc(S(=O)(=O)N2CCOCC2)cc1[N+](=O)[O-] | 0.2 | 1 | -15 | -18% | 0% | -5% | 1.3%
O=C(NCc1nnnn1-c1ccc(F)cc1)c1ccc([N+](=O)[O-])o1 | x | -1 | 1 | 14%[15.4 µM] | x | 2% | x
NC(=O)[C@H](Cc1cc2ccccc2s1)NC(=O)[C@@H]1CC2(CC(c3cccc(NC(=O)[C@@H]4CCC(=O)N4)c3)=NO2)CN1C(=O)/C=C/Sc1ccccc1 (stereo not given in full) | 1.7 | -1 | -7 | 12% | -5% | -9% | -0.5%
CCN(CC)c1nc2cc(C)ccc2cc1/C=C(\C#N)C(N)=O | u | -15 | 5 | -1%[15.4 µM] | 7% | -7% | x
Cc1cnc(NC(=O)Cc2ccc(C)c(C)c2)s1 | -12 | 12 | 27 | 1% | 14% | 10% | x
CC(N)C12CC3CC(CC(O)(C3)C1)C2 (stereo not given) | -0.3 | 1 | -11 | 1% | 5% | 5% | -1.2%
O=C(COc1ccc([N+](=O)[O-])cc1)NCCC1=CCCCC1 | 1.9 | -11 | 13 | 22%[15.4 µM] | -9% | -12% | 0.6%
CCCS(=O)(=O)N1CCN(S(=O)(=O)c2ccccc2[N+](=O)[O-])CC1 | -2.0 | -16 | -6 | 8% | 21% | 8% | x
O=C(CSc1nnc(CNC(=O)c2ccco2)o1)c1ccccc1 | -1.4 | 18 | -13 | -7% | 71µM* | -5% | -1.6%
O=C(CCN1C(=O)/C(=C\c2ccco2)SC1=S)Nc1ccc(C(=O)O)c(O)c1 | u | -2 | -3 | 0% | 45µM* | 3% | -2.1%
CN1CCN(C(=O)/C(=C/c2cccc([N+](=O)[O-])c2)NC(=O)c2ccccc2)CC1 | 0.1 | 0 | 1 | -3%[15.4 µM] | 15% | 16% | -1.9%
Cc1cccc(N2CCN(C(=O)CCn3c(=S)[nH]c4cc5c(cc4c3=O)OCO5)CC2C)c1 (stereo not given) | 0.3 | -2 | 3 | 21% | 6% | -19% | 1.9%
O=C(CCNC(=O)c1ccc(Br)cc1)Nc1ccccc1N1CCOCC1 | x | 0 | 5 | -29%[15.4 µM] | x | -14% | 1.2%
Cn1cccc1/C=N/N1CCN(Cc2ccccc2Cl)CC1 | -0.5 | 9 | -22 | -141%[inhibitor] | 56µM* | -1% | x
O=C(Oc1ccc2c(c1)O/C(=C\c1ccncc1)C2=O)c1cccs1 | u | 3 | 2 | u | u | -17% | x
Cn1nccc1C(=O)Nc1ccc(OC(=O)c2ccnn2C)cc1 | -1.9 | -2 | -14 | 0% | 12% | -16% | 1.0%
CCOC(=O)c1c(C)n(-c2ccc(C)cc2)c2ccc(OCC(O)CN3CCN(C)CC3)cc12 (stereo not given) | -1.6 | 17 | 1 | -25% | 40µM* | 11% | -19%
O=C(CSc1ccc(Cl)cc1)Nc1ccc(-c2nc3ccccc3[nH]2)cc1 | x | 6 | -19 | 15% | u | 9% | 25µM*
COC(=O)c1cccc(NC(=O)C2C3CCC(C3)C2C(=O)O)c1 (stereo not given) | 1.3 | -5 | 0 | -28% | 8% | 4% | -14%
Cc1nn(C(C)(C)C)c(NC(=O)c2ccc(Cl)cc2)c1Br | 2.9 | 3 | 6 | u | 7% | 4% | x
CCN(C(=O)COC(=O)CNC(=O)c1cccs1)c1c(N)n(Cc2ccccc2)c(=O)[nH]c1=O | x | x | -17 | 4% | x | 9% | -1.8%
CC(=O)c1ccccc1OCC(O)CNC1CCCC1 (stereo not given) | x | 1 | 22 | 7% | 13% | 19% | -7.7%
C=C1CCN(C(Cc2ccccc2)C(=O)NC2CCN(Cc3ccccc3)CC2)S(=O)(=O)c2ccccc21 (stereo not given) | -2.8 | x | -14 | x | -12% | x | x

Next results follow:
SMILES | Menin MLL FP FL | TRPV1 potentiator | TRPML1 blocker | gsp agonist | Sfp inh | gsp antag | ClpP mod
CCOC(=O)C(NC(C)=O)C(OC(C)=O)c1cccc([N+](=O)[O-])c1 (stereo not given) | -0.4 | u | -21 | -2% | 7% | 9% | 0.3%
C=CCNc1ncnc2c1cnn2-c1ccc(Cl)cc1 | -0.5 | -6 | 9 | 16% | 12% | -1% | -26%
COC(=O)C1(C)NC(c2ccc(F)cc2)C2C(=O)N(c3ccccc3)C(=O)C21 (stereo not given) | 1.2 | 0 | -2 | -8% | 11% | 10% | 0.2%
CC1CC(C)(C)NC(C)c2ccccc21 (stereo not given) | 2.0 | 4 | 10 | -2% | 5% | 11% | 2.6%
Cc1cnc(C(=O)Nc2ccc(F)c(F)c2)cn1 | 0.3 | -27 | -14 | -1% | 10% | 4% | -2.6%
CC(C)c1nnc(NC(=O)Cc2cccs2)s1 | 3.1 | 3 | 13 | u | 6% | -6% | -1.5%
CCOC(=O)c1c(NC(=O)CN2C(=O)NC3(CCCCC3C)C2=O)sc(C(=O)N(C)C)c1C (stereo not given) | x | 0 | -8 | 46%[15.4 µM] | x | -5% | x
O=C(CNC(=O)Cc1ccccc1)NCC(=O)OCc1ccccc1 | 3.4 | 16 | 27 | -24% | 10% | 4% | -2.4%
Cc1nn(CC(C)C)c(=S)[nH]c1=O | 0.3 | -12 | -15 | 3% | 10% | 11% | 0.3%
COc1ccccc1Oc1ncnc2c1cnn2-c1ccccc1 | 2.9 | -7 | 21 | 0%[15.4 µM] | -8% | -30% | x
Cc1cc(C)cc(C(=O)Nc2ccc(NC(=O)Cc3ccccc3)cc2)c1 | -0.9 | -4 | -8 | 0% | 26% | 0% | 3.9%
O=C(Nc1cccc(C(F)(F)F)c1)c1cccc(NS(=O)(=O)c2ccc(Br)c(C(=O)O)c2)c1 | -1.1 | 6 | 14 | 4%[15.4 µM] | 11% | 4% | -0.8%
O=C(Nc1cccc(C2=NCCN2)c1)Nc1cccc(C2=NCCN2)c1 | -27 | x | -14 | x | 5% | -9% | -0.1%
CCOC(=O)c1c(C(=O)OCC)c(C)n(N2C(=O)CSC2=S)c1C | 11 | -5 | 5 | 3% | 16µM* | -1% | 1.8%
COc1cccc(S(=O)(=O)Nc2ccc(C(=O)Nc3ccncc3)cc2)c1 | 3.4 | 9 | -12 | -1% | 18% | -9% | -8.5%
COc1ccc(C)cc1NC(=O)CN1CCCN(S(=O)(=O)c2ccc(Br)cc2)CC1 | -1.1 | 27 | 19&78 | 4%[15.4 µM] | -5% | u | 0.3%
COc1ccc(CNC(=O)C2CCCN2S(=O)(=O)c2ccccc2)cc1 (stereo not given) | -0.8 | 14 | 4 | 1% | -7% | -2% | 1.2%
C#CCOCCOCCOCCNc1nc(N2CCN(C(=O)[C@H](CCC(=O)O)n3cc(C(N)CO)nn3)CC2)nc(N2CCN(C(=O)[C@H](CCCCN)n3cc(C(N)[C@H](C)CC)nn3)CC2)n1 (stereo not given in full) | -1.7 | -17 | x | x | u | x | x
CCCN(CC(=O)Nc1ccc(C)cc1Br)CC(=O)Nc1ccc(F)c(F)c1F | 5.6 | -17 | -4 | u | 1% | -3% | -1.4%
CCC(NC(=O)c1cc(COc2cncc(Cl)c2)on1)c1ccc(C)cc1 (stereo not given) | x | -14 | -4 | 9%[15.4 µM] | 21% | -15% | x
CN(C)c1cccc(C(=O)OCC(=O)N(Cc2ccccc2)C2CCS(=O)(=O)C2)c1 (stereo not given) | 2.1 | 4 | 4 | 4% | 14% | -9% | x
CCOC(=O)C1=C(c2ccccc2)OC(N)=C(C#N)C1C1CCCCC1 (stereo not given) | 1.6 | -16 | -2 | -50%[inhibitor] | 14% | -1%[15.4 µM] | -12%
COc1ccc(CNS(=O)(=O)c2c(C(=O)N3CCCCC3)c(C)n(C)c2C)cc1 | -6.4 | 8 | u | 29% | 19% | 5% | -0.1%
CCc1ccc(NCc2cc3c(C)nn(-c4ccccc4)c3[nH]c2=O)cc1 | 5.5 | 15 | -4 | -5% | 15% | 0% | 1.7%
Cc1ccc(C(=O)NC(=S)NNC(=O)COc2ccc([N+](=O)[O-])cc2)cc1 | -0.7 | -24 | 2 | 15%[15.4 µM] | 71µM* | -13% | -2.6%

(continued)
SMILES | Menin MLL FP FL | TRPV1 potentiator | TRPML1 blocker | gsp agonist | Sfp inh | gsp antag | ClpP mod
O=C(CCNC(=O)c1ccc([N+](=O)[O-])cc1)N/N=C/c1ccc(F)cc1 | -0.3 | 10 | 10 | -29% | 15% | -4% | 2.3%
COc1ccccc1NC(=O)COC(=O)c1cc(C)oc1C | x | x | 4 | -31%[inhibitor] | x | -7% | x
CCN1CCN(CC(=O)N2N=C(c3cccs3)CC2c2ccc(F)cc2)C(=O)C1=O (stereo not given) | -0.5 | -11 | 8 | 4%[15.4 µM] | 12% | 0% | -0.8%
CCCCCCOc1ccc(C(=O)NCCCn2ccnc2)cc1 | 0.3 | 7 | 6 | -12%[15.4 µM] | 16% | 11% | x
CCOc1ccc(-n2c(-c3ccccc3)c[nH]c2=S)cc1 | 3.1 | 23 | 7 | 6%[15.4 µM] | -24% | -9% | x
O=C(Nc1ccc(O)c(C(=O)O)c1)c1cccc(NC(=O)c2ccco2)c1 | -0.4 | -26 | 0 | -37%[inhibitor] | 0% | -6% | x
CC(=O)Nc1ccc(C(=O)NN2C(=O)c3ccccc3C2=O)cc1 | u | 3 | 23 | -6%[15.4 µM] | 1% | 14% | -2.0%
CCOC(=O)C1(Cc2ccccc2)CCN(Cc2cnn(-c3ccccc3)c2)CC1 | -5.7 | -11 | 9 | -4%[15.4 µM] | -4% | 8% | x

Part of the list above, reduced to ClpP mod, gsp antag and TRPV1 potentiator:
SMILES	ClpP mod	gsp antag	TRPV1 potentiator
COc1ccccc1Oc1ncnc2c1cnn2-c1ccccc1	x	-30%	-7
COc1ccc(C)cc1NC(=O)CN1CCCN(S(=O)(=O)c2ccc(Br)cc2)CC1	0.3%	u	27
